# HSD17B inh = qHTS Assay for Inhibitors of HSD17B4, hydroxysteroid (17-beta) dehydrogenase 4 | Potency, µM (series often up to 57.1 µM), without a hit: at the highest dose activity change, negative = inhibition, most hits filed as inhibitors | actives 7.6% (n = 75,000) | AID 893, 2007 | recombinant HSD17B10, NADH fluorescence kinetic; many of its hits are not listed in these tables; active = well fitted inhibition curve with a large enough effect; inconclusive = small, poorly fitted or top-dose-only effect; inactive = no such curve, though single readings can be large or run the other way;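 also: the protocol describes HADH2 (HSD17B10) and not the HSD17B4 of the title; nearly all actives have a fitted effect of over 70% in size; most hits overshoot -100% by far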
#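 Enzyme plus compound, 15 min room temperature; substrate mix added (NAD+ 1 mM, beta-hydroxybutyryl-CoA 90 uM final); plates read kinetically for NADH fluorescence. HADH2 was His-tagged, E. coli-derived, 20 nM.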
# Starred values were filed as active, the others as inactive; ? = inconclusive; [ ] = another dose, or the depositor's remark. % is scaled to controls: 0 for no effect and ±100 for the full control effect; potency is read from the fitted curve at half-maximal effect.
Molecule	HSD17B inh
Cc1cc(C(=O)CSc2nnc(-c3cccnc3)n2-c2ccccc2F)c(C)n1C	25.1µM*
COc1ccc(-n2c(=O)c(CCc3ccccc3)nc3cnc(N4CCNCC4)nc32)cc1	31.6µM*
CC(C(=O)Nc1ccc(C(=O)O)cc1)N1C(=O)c2ccccc2C1=O (stereo not drawn)	-3.3%
CCCn1c(-c2ccc(F)cc2)nc2c(N3CCC(N(C)C)C3)nc(C)nc21 (stereo not drawn)	31.6µM*
COc1cccc(C(=O)Nc2c3c(nn2-c2cccc(C)c2C)CS(=O)(=O)C3)c1OC	-10.4%
C/C=C/OC(=O)NC(c1ccccc1)[C@]1(C(C)=O)CCOC1=O (stereo partly drawn)	4.6%[11.4 µM]
COc1ccc(OC)c(CN2CCCC(C(=O)N3CCCCC3)C2)c1 (stereo not drawn)	0.9%
COC(=O)CN1C(=O)C(O)(CC(=O)c2ccc(C)o2)c2ccccc21 (stereo not drawn)	4.6%
CCCCCc1nc2c(=O)[nH]c3ccccc3c2o1	-8.4%
CCN(CC)S(=O)(=O)c1ccc2nc(NC(=O)c3cccs3)sc2c1	?
C#CCN1C(=O)C2C(C(=O)NC)C3C=CC2(O3)C1C(=O)NCc1ccc(OC)cc1 (stereo not drawn)	6.5%
COc1ccc(N2CCCn3c2nc2c3c(=O)n(CCCc3ccccc3)c(=O)n2C)cc1	4.0%
CCCn1nc(C(=O)NCc2ccccn2)c2ccccc2c1=O	5.5%
O=C(c1ccc(-c2ccccc2)cc1)N1CCN(c2nc3ccccc3o2)CC1	2.5%
Cc1cc(-c2ccccc2)nc2[n+]1CCN2C	?
CCN(CC)C(=O)CSc1nc2ccccc2c(=O)n1OC	-2.0%
O=C(CSc1nc2ccccc2o1)Nc1ccc(N2CCOCC2)cc1	0.0%
O=C(CSc1ccc(-c2ccccc2)nn1)N1CCOCC1	-6.5%
O=C(CSc1nnc(-c2cccs2)o1)N1CCCc2ccccc21	-18.2%
CC1(C(=O)NC2CCCCC2)CCC(=O)N1Cc1cccs1 (stereo not drawn)	2.4%
CC1(C)Oc2ccc(C(=O)N3CCOCC3)cc2N(CC(=O)N2CCOCC2)C1=O	1.8%
O=C(NCCO)c1cccc(S(=O)(=O)N2CCCCC2)c1	-13.5%
Cc1cccc(Nc2ncnc3nc[nH]c23)c1C	8.9%
O=C(N1CCOCC1)N(CCN1CCOCC1)Cc1cccc(Cl)c1	8.0%
CCOC(=O)C1CCN(C(=O)CS(=O)Cc2nc(-c3ccc(C)cc3)oc2C)CC1 (stereo not drawn)	-7.0%
CCn1c(SCC(=O)N2c3ccccc3Sc3ccccc32)nc2c1c(=O)n(C)c(=O)n2C	1.8%
COc1ccc(C(CNC(=O)c2cc(=O)[nH]c3ccccc23)N2CCCC2)cc1 (stereo not drawn)	?
CCOC(=O)C1=C(C)N(CCO)C(=O)NC1c1cccc(O)c1 (stereo not drawn)	-9.1%
Cc1cc(NC(=O)CCc2ccc(S(=O)(=O)N3CCOCC3)cc2)n(-c2ccccc2)n1	2.6%
O=C(CN1CCN(Cc2ccccc2Cl)C1=O)NCC1CCCO1 (stereo not drawn)	-2.2%
CCCN1C(=O)CC(c2ccco2)Sc2ccccc21 (stereo not drawn)	-6.0%
CC(=O)NC(CCS(C)(=O)=O)C(=O)Nc1ccccc1Cl (stereo not drawn)	-1.4%
Nn1c(SCC(=O)Nc2ccccc2F)nc2ccccc2c1=O	8.0%
COc1nc(C)ccc1-c1noc(-c2ccccn2)n1	9.3%
CC1Cc2ccccc2N1c1ncnc2nc[nH]c12 (stereo not drawn)	-3.0%
O=C(Nc1cccc(O)c1)c1ccc(Br)cc1	-21.1%
COc1cc(OC)cc(-c2nnc(SCC(=O)N3CCCCC3)o2)c1	4.0%
Cc1cc(C)c(C)c(S(=O)(=O)NCCC(=O)O)c1C	3.1%
O=C(Oc1ccccc1)N1CCC2(CCCN(c3cccc(-c4ccccc4)c3)C2)CC1	-16.2%
CC(C)NS(=O)(=O)c1ccc(CCC(=O)NCc2cccnc2)cc1	3.9%
COc1ccc(N(CC(=O)Nc2ccc(C)cn2)S(=O)(=O)c2c(C)nn(C)c2C)cc1	6.8%
COc1ccc(CC(=O)Nc2nc3ccccc3s2)cc1S(=O)(=O)N1CCOCC1	3.8%
OC[C@@H]1O[C@@H](n2cnc3c(NC4CCCC4)ncnc32)[C@@H](O)[C@H]1O	6.9%
CCOC(=O)c1[nH]c(C)c(C(=O)Nc2ccc(F)cc2)c1C	0.3%
COCCn1c(=O)c(-c2ccc(OC)cc2)nc2cnc(Nc3ccccc3)nc21	7.0%
COc1ccccc1N1CCN(C(=O)CCCCn2c(=O)[nH]c3ccsc3c2=O)CC1	3.9%
O=C(O)CCCSc1nc2ccccc2s1	11.0%[11.4 µM]
C=CCN1C(=O)CSc2ccc(C(=O)NCc3ccco3)cc21	5.1%
O=c1[nH]c2cccnc2n1Cc1ccco1	-2.0%
COC(=O)NCC(c1cccnc1)N1CCOCC1 (stereo not drawn)	?

# Next part (four carried over from the part before).
Molecule	HSD17B inh
O=C(O)CCCSc1nc2ccccc2s1	11.0%[11.4 µM]
C=CCN1C(=O)CSc2ccc(C(=O)NCc3ccco3)cc21	5.1%
O=c1[nH]c2cccnc2n1Cc1ccco1	-2.0%
COC(=O)NCC(c1cccnc1)N1CCOCC1 (stereo not drawn)	?
O=C(Cc1cccs1)Nc1ccc(N2CCOCC2)cc1	-4.8%
COc1cccc(-c2nccc(NCCc3c[nH]c4ccc(OC)cc34)n2)c1	-4.6%
CC(C)=CCC/C(C)=C/COc1c2occc2cc2ccc(=O)oc12	-25.2%
COc1cc(NC(=O)CN(c2ccc(C)cc2)S(=O)(=O)c2c(C)n[nH]c2C)cc(OC)c1	-5.3%
CC1Cc2ccccc2N1S(=O)(=O)c1cccc(C(=O)OCC(=O)NC2CCS(=O)(=O)C2)c1 (stereo not drawn)	-6.4%
c1cnc2c(SCc3ccc(-c4nnco4)cc3)cccc2c1	7.94µM*
CCOC(=O)Cn1nc(C)c(-c2ccccc2)c1N	5.5%
O=C(c1scc2c1CCCC2)N1CCOCC1	-9.1%
COc1ccc(C(=O)N2CCC[C@@]3(CCN(Cc4ccccc4OC)C3)C2)cc1	6.1%
COc1nc2ccccc2cc1-c1noc(-c2cccnc2)n1	-15.8%
COc1ccccc1-c1ccc2ncnc(NCCNC(C)=O)c2c1	20µM*
CCOC(=O)N1CCN(C(=O)c2ccc3c(=O)n(CCOC)c(=O)[nH]c3c2)CC1	25.1µM*
COc1ccccc1CNC(=O)COc1ccccc1OC	-12.3%
CC12CCC(C(=O)N3CCN(c4ccccc4)CC3)(CC1=O)C2(C)C (stereo not drawn)	8.3%
Cc1oc2c(CN3CCCC3)c(O)ccc2c(=O)c1-c1ccccc1	25.1µM*
O=C(C1=C(O)C(=O)N(c2ncccn2)C1c1ccc(Cl)c(Cl)c1)c1ccco1 (stereo not drawn)	-21.2%
COc1cc2c(cc1OC)CN(c1ccc(-c3ccccc3OC)nn1)CC2	1.8%
COc1ccccc1CNc1ccnc(-c2ccc3c(c2)OCO3)n1	?
Cc1cc(=O)[nH]c(SCC(=O)N2CCCCCC2)n1	11.1%
CCc1nnc(NC(=O)CN2CCOCC2)s1	14.3%
O=C(NC1CCCCC1NC(=O)c1ccco1)c1ccco1 (stereo not drawn)	12.3%
O=C(Cn1ccc(C(F)(F)F)n1)Nc1ccc(S(=O)(=O)NCc2ccco2)cc1	6.4%
O=C(Nc1nccs1)C1(S(=O)(=O)c2ccc(Cl)cc2)CC1	-2.0%
Cc1cc(NC(=O)c2ccccc2-c2ccccc2C(=O)O)no1	12.4%
COc1ccc(S(=O)(=O)N2CCC(C(=O)NC3CC3)CC2)cc1Cl	-1.2%
Cc1csc2nc(CCNS(=O)(=O)c3cccs3)cn12	5.1%
CCOc1ccc(/C(O)=C2\C(=O)C(=O)N(CCN(C)C)C2c2cc(OC)ccc2OC)cc1Cl (stereo not drawn)	6.5%
O=C(CC1CCCCC1)NC1CCCC1	13.3%
O=c1nc2s/c(=C\c3ccco3)c(=O)n2nc1Cc1ccc(F)cc1	25.1µM*
CCOC(=O)c1c(C)c(C(=O)NCc2ccc3c(c2)OCO3)c(C)n1CC	-1.3%
COc1ccc(C(=O)CSc2nn3c(=O)c(C(C)(C)C)nnc3s2)cc1	?
CC(C)Sc1nc2c(c(=O)[nH]c(=O)n2C)n1Cc1ccc(Cl)cc1	-1.0%
Cc1csc2nc(CNS(=O)(=O)c3ccc4c(c3)OCCO4)cn12	0.3%
COc1ccc(C[C@@](C)(N)C(=O)O)cc1OC	-3.6%[25.6 µM]
O=S(=O)(N1CCCCCC1)N1CCN(S(=O)(=O)N2CCOCC2)CC1	-8.7%
CC(=O)c1ccccc1OCCn1nnc(-c2ccc(C)cc2)n1	-4.9%
COC(=O)c1cc(COC(=O)c2ccc3ccccc3n2)oc1C	-2.2%
CN(C)Cc1ccccc1-c1ccc2ncnc(NCc3cccs3)c2c1	9.4%
O=C(NCC(c1cccnc1)N1CCN(c2ccc(F)cc2)CC1)c1ccccc1 (stereo not drawn)	-0.6%
CCOc1ccc(-n2c(SCc3nc(-c4cccs4)no3)nnc2-c2ccncc2)cc1	3.0%
O=C(CCNS(=O)(=O)c1ccc(Cl)cc1)NCc1ccccn1	4.0%
Cc1ccc(NC(=O)CSc2nnc(-c3ccccn3)n2C)cc1	11.0%
COc1ccc(NC(=O)Nc2ccc3c(c2)N(C)C(=O)CS3)cc1OC	-4.2%
CC(=O)Nc1nnc(SCc2cccc(F)c2)s1	6.2%
Cc1onc(-c2ccccc2Cl)c1C(=O)Nc1nnc(C(C)C)s1	-1.9%
Cc1cnc(C(=O)OCC(=O)Nc2oc(-c3ccccc3)c(-c3ccccc3)c2C#N)cn1	81.5%[activator]
Cc1ccc(C)c(S(=O)(=O)NC(CCC(N)=O)C(=O)O)c1 (stereo not drawn)	6.1%
O=C(CN1CCN(c2nc(-c3ccc(F)cc3)cs2)CC1)Nc1ccc2c(c1)OCO2	9.2%
COc1cccc(OC)c1C(=O)N1CCN(Cc2ccncc2)CC1	6.8%
CCOC(=O)C1CCN(C(=O)CC(C)c2ccccc2)CC1 (stereo not drawn)	4.0%

# 3 compounds drawn at random from those above, as already listed:
Molecule	HSD17B inh
O=c1nc2s/c(=C\c3ccco3)c(=O)n2nc1Cc1ccc(F)cc1	25.1µM*
Cc1ccc(C)c(S(=O)(=O)NC(CCC(N)=O)C(=O)O)c1 (stereo not drawn)	6.1%
Cc1csc2nc(CCNS(=O)(=O)c3cccs3)cn12	5.1%

# Carrying on:
Molecule	HSD17B inh
NC1(C(=O)O)CCC1	-0.2%
COc1cc(C(=S)N2CCCC2)cc(Cl)c1O	-7.3%
O=C(Nc1cccc(F)c1)N1CC2(CCN(C(=O)c3cccc(F)c3)CC2)C1	5.6%
O=c1oc2ccccc2c(O)c1/C=N/c1ccccn1	-13.2%
COc1ccccc1Cn1c(=S)[nH]c2cc(C(=O)N3CCN(C)CC3)ccc2c1=O	0.1%
COc1nc(OC)nc(N2CCC(C(=O)NC3CCCCCC3)CC2)n1	1.7%
Cc1cc(NC(=O)CSC2=Nc3ccccc3C3=NC(Cc4ccccc4)C(=O)N23)n[nH]1 (stereo not drawn)	-27.0%
CC(C)(C)C1CCc2onc(C(=O)N3CCOCC3)c2C1 (stereo not drawn)	-3.9%
COc1nc(-c2ccc(Cl)cc2)ccc1-c1noc(-c2ccncc2)n1	-22.3%
O=C(NCc1ccc(F)cc1)C1CCN(C(=O)NCc2ccccc2)CC1	-4.0%
CCC1CCCCN1C(=O)CSc1nc(N)c(NC(=O)c2ccco2)c(=O)[nH]1 (stereo not drawn)	31.6µM*
COc1ccccc1NC(=O)CN(Cc1ccco1)C(=O)c1ccc(-n2nc(C)cc2C)cc1	1.3%
N#C/C(=C1/CCCCCN1)c1nc2ccccc2[nH]1	-2.8%
CCOCC(=O)Nc1c(C(=O)Nc2ccccc2OC)oc2ccccc12	12.6µM*
COCCn1nnnc1C(c1cccc(C#N)c1)N1CCCCCC1 (stereo not drawn)	-5.6%
Cc1nnc(NC(=O)c2ccc(S(=O)(=O)N(C)Cc3ccccc3)cc2)o1	-1.6%
COc1cccc(C(=O)SC2=NCCS2)c1	-6.7%
COc1ccccc1N(CC(=O)NCCSc1ccccc1)S(C)(=O)=O	-8.9%
COc1cccc(Cn2c(=O)c(CCc3ccccc3)nc3cnc(N4CCOCC4)nc32)c1	?
Cc1cccc(OCC(O)CN2CCN(C3CCCCC3)CC2)c1 (stereo not drawn)	2.9%
Cc1ccc(OCC(=O)Nc2ccc(O)c(C(=O)O)c2)cc1C	31.6µM*
CC(C)=NO[C@@H](C)c1cn([C@@H]2COC[C@@H]2O)nn1	0.2%[11.4 µM]
CCCCc1c2ccccc2nc2[nH]c3ccccc3c12	?
Cc1cccc(-n2nnnc2SCC(=O)c2cc(C)n(CC3CCCO3)c2C)c1 (stereo not drawn)	-23.3%
c1csc(-c2ccc3ccccc3n2)c1	?

# Source: PubChem BioAssay

# The list is partial. The share of hits here may be higher or lower than overall.
